# Compound activity as filed in PubChem BioAssay.
# PINK1 modulator: modulators of PINK1 expression; PINK1 immunofluorescence, high-content cytometry, 24 h; Potency, µM (titrated, usually from 76.6 µM), for inactives: at the top dose activation (PINK1 increase), hits mostly activators; 410,000 tested, 0.2% active; active = well fitted activation curve with a large enough effect; inconclusive = small, poorly fitted or top-dose-only effect; inactive = flat fitted curve, though single readings scatter; cell line not stated here;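 also: % of control where 0% means no effect; nearly all actives have a fitted effect of over 65% in size; a mitochondrial uncoupler was the plate control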
#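 PINK1 protein, normally rapidly degraded, was detected by immunofluorescence after 24 hour compound treatment of a stable cell line. Titration data (5 concentrations) came from laser-scanning cytometry, with CCCP-treated wells as controls.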
# Starred values were filed as active, the others as inactive; ? = inconclusive. Potency is read from the fitted curve at half-maximal effect.
smiles | PINK1 modulator
O=S(=O)(NCCc1csc2nc(-c3ccccc3)nn12)c1ccc(Oc2ccccc2)cc1 | 0.8%
CCOc1ccc(NC(=O)CCSc2nc(-c3ccc4c(c3)OCO4)cc(C(F)(F)F)n2)cc1 | 7.5%
O=C(CCC(=O)N1CC2CCCN2c2ccccc21)NCc1ccccc1 (stereo unspecified) | 0.5%
COc1ccc(C(=O)c2cn(CC(=O)Nc3cc(C)ccc3C)c3nc(C)ccc3c2=O)cc1 | -0.9%
O=C(CNC(=O)c1ccccc1)NCC(=O)OCC(=O)c1cccc2ccccc12 | 2.0%
COc1ccc(-c2cc3nc(-c4ccc(C)cc4)cc(C(F)(F)F)n3n2)cc1 | -2.0%
CCCCOc1ccc(C(=O)N2CCN(CCc3ccncc3)CC2)cc1 | -1.5%
CCOC(=O)C1(C)C=C(Nc2ccc(C(N)=O)cc2)C(=O)N1c1ccccc1 (stereo unspecified) | -0.1%
O=C(CNS(=O)(=O)c1cccs1)N1CCN(c2ccccc2Cl)CC1 | -1.0%
CCOC(=O)c1c(NC(=O)CS(=O)(=O)c2ccc(Cl)cc2)sc2c1CCCC2 | 1.5%
COc1cccc(C(=O)N2CC(=O)Nc3ccc(C)cc3C2c2ccc(F)cc2)c1OC (stereo unspecified) | -1.4%
CCCOc1ccc(-c2cccc(NS(=O)(=O)c3ccc(CC)cc3)c2)nn1 | 5.1%

# 4 entries from above, with each value named:
COc1ccc(C(=O)c2cn(CC(=O)Nc3cc(C)ccc3C)c3nc(C)ccc3c2=O)cc1
  PINK1 modulator = -0.9%
O=C(CNC(=O)c1ccccc1)NCC(=O)OCC(=O)c1cccc2ccccc12
  PINK1 modulator = 2.0%
COc1ccc(-c2cc3nc(-c4ccc(C)cc4)cc(C(F)(F)F)n3n2)cc1
  PINK1 modulator = -2.0%
CCCCOc1ccc(C(=O)N2CCN(CCc3ccncc3)CC2)cc1
  PINK1 modulator = -1.5%

# The results go on:
smiles | PINK1 modulator
Cc1ccccc1C1(CC(=O)N2CCOCC2)CC(=O)N(Cc2cccnc2)C1=O (stereo unspecified) | -0.7%
CCN(CC)C(=O)C1=CC(c2ccc3c(c2)OCO3)=NS(=O)(=O)N1C | -1.6%
CC(C)CCNC(=O)[C@@H](c1ccccc1)N1Cc2ccccc2C1=O | -0.2%
COc1ccc(CCNC(=O)c2ccc3c(c2)CCN3S(=O)(=O)c2ccccc2)cc1OC | 5.3%
CCOc1ccc(C(c2c(C)[nH]n(-c3ccccc3)c2=O)c2c(C)[nH]n(-c3ccccc3)c2=O)cc1OC | 0.7%
O=C(NCCN1CCN(c2ccccc2F)CC1)C1COc2ccccc2C1 (stereo unspecified) | 1.6%
Cn1c(=O)oc2cc(S(=O)(=O)NCCC(=O)Nc3ccc(F)c(Cl)c3)ccc21 | -0.4%
COc1cccc(CSc2nc3ccccc3c3nc(CCn4c(C)nc5ccccc54)nn23)c1 | 4.3%
CCn1c2c(c(=O)n3ncc(C(=O)N4CCN(c5ccccc5)CC4)c13)CN(Cc1ccc(OC)cc1)CC2 | 0.2%
COc1ccc(N2CCN(C(=O)c3nn(-c4ccc(C)cc4)c(=O)n(C)c3=O)CC2)cc1 | -0.7%
COc1ccc(C2C(C(N)=O)=C(C)Nc3nc(CCCO)nn32)c(OC)c1 (stereo unspecified) | -0.3%
Cc1ccc(NC(=O)CN2C(=O)C(C)(C)c3ccccc32)cc1 | -1.5%
c1ncc2snnc2n1 | 0.5%
CCCCCCCCCC[Si](C)(C)CCC(=O)N[C@@H](Cc1ccc(C)cc1)c1ccccc1 | 0.4%
CCCc1nn2c(=O)cc(COC(=O)c3cccc(NC(=O)CCc4ccccc4)c3)nc2s1 | 4.6%
COc1ccccc1CNC(=O)CCn1c(=O)c2ccccc2n(CC(=O)Nc2ccc(Br)cc2F)c1=O | 3.4%
Cc1cc(C)c(Cn2c(C(O)c3ccccc3)nc3ccccc32)c(C)c1 (stereo unspecified) | -1.0%
Cc1ccc(OCc2ccc(-c3nc(C#N)c(N4CCC(C)CC4)o3)o2)cc1 | -0.6%
CCN(CC)c1nc2c(S(=O)(=O)c3ccc(C)cc3)nnn2c2ccsc12 | 1.2%
Cc1ccc(CNCc2ccccc2)s1 | 0.9%
COc1ccc(C2=C(C)C(N3CCC(C(=O)NCc4ccco4)CC3)=NS2(=O)=O)cc1 | 3.1%
O=C(CCn1c(=O)c2ccccc2n(CC(=O)Nc2cccc(F)c2)c1=O)NCCc1ccccc1 | -0.5%
COc1ccccc1CN1C(=O)CN(C2CCCCCC2)C(=O)C1c1ccc(C)cc1 (stereo unspecified) | 1.1%
CCOC(=O)N1CCN(C(=O)CN2C(=O)/C(=C\c3cccc(OC)c3)SC2=S)CC1 | 0.4%
Cc1c(C(=O)Nc2ccc(F)cc2)sc2nc[nH]c(=O)c12 | 1.3%
Cc1cc(-n2c(SCc3ccccc3F)nc3[nH]ncc3c2=O)ccc1Cl | 0.6%
CCOC(=O)Cc1ccc(NC(=O)NCc2cccn2Cc2ccccc2)cc1 | -0.6%
CCOc1ccc(CCNC(=O)CCCn2c(=O)c3cccn3c3ccccc32)cc1 | -0.4%
COc1ccc(OC)c(NC(=O)c2ccc3c(SCC(=O)O)c4c(nc3c2)CCCC4)c1 | 0.1%
CCOc1ccc(-c2nc(C#N)c(NCCCOC)o2)cc1 | 0.9%
Cc1ccc2[nH]c(=O)c3cc(C(=O)N4CCN(c5ccccc5F)CC4)sc3c2c1 | 1.4%
COc1cc2nc(N3CCCN(C)CC3)nc(Nc3ccncc3)c2cc1OC | 0.2%
CC(=O)Nc1ccc(NC(=O)CN2C(=O)CC(c3ccco3)Sc3ccccc32)cc1 (stereo unspecified) | 0.3%
O=C(NCc1ccc(F)cc1)c1nnc(Cc2cccc(F)c2)o1 | 3.2%
COc1ccc(NC(=O)CN2CCN(Cc3ccc(F)cc3)S2(=O)=O)cc1Cl | -0.5%
CCOc1ccc2nc(N3CCCC(C(=O)Nc4ccc(CC)cc4)C3)sc2c1 (stereo unspecified) | 0.0%

# Reformatted: results already given
> Cc1cc(-n2c(SCc3ccccc3F)nc3[nH]ncc3c2=O)ccc1Cl
  PINK1 modulator: 0.6%

> CCOC(=O)Cc1ccc(NC(=O)NCc2cccn2Cc2ccccc2)cc1
  PINK1 modulator: -0.6%

> CCOc1ccc(CCNC(=O)CCCn2c(=O)c3cccn3c3ccccc32)cc1
  PINK1 modulator: -0.4%

> COc1ccc(OC)c(NC(=O)c2ccc3c(SCC(=O)O)c4c(nc3c2)CCCC4)c1
  PINK1 modulator: 0.1%

# (further entries)
smiles | PINK1 modulator
CCS(=O)(=O)N1CCc2cc(C(=O)NCCc3ccccc3)ccc21 | 1.1%
COc1cc(C(CC(=O)Nc2ccc(C)c(F)c2)N2Cc3ccccc3C2=O)cc(OC)c1OC (stereo unspecified) | -5.4%
CCOc1cc2[nH]c(=O)n(CCCC(=O)N3CCN(c4cccc(Cl)c4)CC3)c(=O)c2cc1OCC | 0.6%
Cc1cc(-c2ccc(S(=O)(=O)Nc3ccc(Cl)cc3C)cc2)on1 | 7.7%
Nc1nonc1C(=O)NCCNCc1ccc(Cl)c(Cl)c1 | 1.2%
COc1ccc(-c2nc3ccccc3s2)cc1NC(=O)c1cccc(F)c1 | -2.2%
Cc1cccc(Cc2c(C)nc3nc(SCc4ccccc4F)nn3c2C)c1 | 0.0%
O=C(NCCc1csc2nc(-c3ccc(F)cc3)nn12)c1cccc(C(F)(F)F)c1 | 1.2%
COc1ccc(-c2ccc(CCC(=O)O)n2-c2cc(Cl)ccc2O)cc1 | 1.9%
CCOC(=O)C1=C(CS(=O)(=O)c2cccc(C(F)(F)F)c2)NC(=O)NC1c1cccc(OC)c1 (stereo unspecified) | -1.7%
Cc1ccc2c(CC(=O)Nc3cccc(Cl)c3C)coc2c1 | 9.2%
Cc1cccc(CN2CCN(CC(=O)NCCc3ccc(Cl)cc3)C2=O)c1 | 0.7%
COCCCNc1oc(-c2ccc(COc3ccc(Cl)cc3)o2)nc1C#N | -2.3%
COc1cc(OC)cc(N2C(=O)N(CC(=O)c3ccc(F)cc3)c3ccccc3S2(=O)=O)c1 | 1.5%
COc1ccc(C(=O)NC2(C(F)(F)F)C(=O)NC(C)=C2C#N)cc1 (stereo unspecified) | 4.2%
COCCN1C(=O)c2[nH]nc(-c3cc(C)ccc3O)c2C1c1ccc(C(C)C)cc1 (stereo unspecified) | 3.8%
CCOc1ccc(/C=C/C(=O)Nc2sc3c(c2C(=O)OC)C(C(=O)OC)CC3)cc1 (stereo unspecified) | 1.0%
Cc1ccc(-n2c3c(cc(-c4nc(-c5ccc(Cl)cc5)cs4)c2=O)C(=O)CC(C)(C)C3)cc1C | 6.4%
COc1ccccc1/C=C/c1nc2ccccc2s1 | 1.6%
CCOC(=O)c1cccc(NC(=O)c2ccc3c(c2)nnn3C2CCCC2)c1 | -0.8%
Cc1ccc(CN(Cc2cccn2-c2nnc(N3CCCC3=O)s2)C(=O)Nc2ccccc2C(F)(F)F)cc1 | 0.8%
C[n+]1ccc(/C=C/c2ccc(F)cc2)c2ccccc21 | ?
Cc1ccccc1NC(=O)CCn1nc(-c2ccc(Cl)cc2)c2ccccc2c1=O | 1.0%
CC(C)C(=O)NC1CC(=O)N(c2ccc3c(c2)OCCO3)C1 (stereo unspecified) | 1.1%

# The results go on.
mol | PINK1 modulator
CC(C)OC(=O)c1c(NC(=O)c2cccc(C(F)(F)F)c2)sc2c1CCCC2 | 0.6%
O=C(NCc1ccco1)c1ccc2c(c1)N(Cc1ccc(Cl)cc1)C(=O)c1ccccc1S2(=O)=O | 3.8%
CCOC(=O)N1CCc2c(sc3c2c(=O)n(Cc2ccccc2)c(=O)n3CC(=O)Nc2ccccc2F)C1 | 0.3%
CCOc1ccc(N(CC(=O)Nc2ccc(OC)cc2)S(=O)(=O)c2ccc(Cl)cc2)cc1 | 3.9%
COc1ccc(NC(=O)c2cccn2-c2nnc(N3CCCCC3)s2)cc1Cl | 2.8%
COc1ccc(N2CCN(c3oc(/C=C/c4cc(OC)c(OC)c(OC)c4)nc3C#N)CC2)cc1 | 1.2%
COc1ccc(C2c3c(n(C)c4ccccc34)C(=O)N2CC(=O)Nc2cccc(Cl)c2)cc1 (stereo unspecified) | 5.6%
CN(C)CCNC(=O)C(=O)NCC(c1ccc2c(c1)OCO2)N1CCOCC1 (stereo unspecified) | -0.2%
COCC(=O)Nc1cc(C(=O)N2CC3CC4CC(C3)CC2C4)c2c(c1)nc(-c1ccncc1)n2C | -0.6%
Cc1c(C(=O)OC2CCCCCC2)[nH]c2c1C(=O)CC(c1ccccc1)C2 (stereo unspecified) | 13.4%
O=C(NCCCN1CCN(c2ccc(F)cc2)CC1)c1cnn(-c2ccc(F)cc2)c1-n1cccc1 | 0.2%
O=C(Cn1cc(S(=O)(=O)Cc2ccccc2F)c2ccccc21)NCc1ccccc1Cl | 2.0%
Cc1ccc(CN(Cc2cccn2-c2nnc(N3CCCC3=O)s2)C(=O)Nc2ccc(F)cc2)cc1 | -0.2%
CCN(Cc1ccccc1)C(=O)Cn1ncc2c(=O)oc3ccc(C)cc3c21 | 3.4%
COc1cccc(C(=O)NCc2nc(-c3cccc(NC(=O)c4ccoc4C)c3)oc2C)c1 | -0.4%
Fc1ccc(Nc2nc3ccccc3n3cnnc23)c(F)c1 | 1.6%
O=S(=O)(Nc1ccc(-c2ccc(N3CCCCC3)nn2)cc1)c1ccc(OC(F)(F)F)cc1 | 2.7%
COc1cc(NC(=O)Cn2c(=O)n(Cc3ccco3)c(=O)c3oc4ccccc4c32)cc(OC)c1 | 11.3%
COc1cccc(NC(=O)Cn2c(-c3nonc3N)nc3ccccc32)c1 | 1.3%
Cc1c(C2=CCN(S(=O)(=O)c3ccc(CC(C)C)cc3)CC2)c2ccccc2n1CC(=O)N1CCCC1 | 1.4%
Cc1ccc(OCc2nc(C#N)c(NCCc3ccccc3)o2)cc1 | 2.4%
Cc1ccc(C(=O)NCCSc2c(C)[nH]c3ccccc23)cc1C | 1.7%
CCCN(C(=O)CCc1nc(-c2ccc(OC)cc2)no1)c1ccccc1F | -0.3%
Cc1ccc(-c2cc(-c3coc4ccc(Cl)cc4c3=O)c3c(n2)-c2ccccc2OC3)cc1 | -0.4%
O=S(=O)(c1ccccc1)N1CCN(S(=O)(=O)c2ccccc2)CC1 | 1.4%
O=C(CCC1N=C2c3ccccc3N=C(SCc3ccccc3F)N2C1=O)NCCc1ccccc1 (stereo unspecified) | 1.0%
COc1cc(C2c3c(oc4ccccc4c3=O)C(=O)N2c2nc(C)c(C)s2)ccc1O (stereo unspecified) | 1.8%
Cn1cc(-c2cc3n(n2)CCC(=O)N3CCCC(=O)Nc2ccccc2F)c2ccccc21 | 4.3%
CCC(Sc1nc2cc(OC)c(OC)cc2c(=O)n1CCc1ccc(Cl)cc1)C(=O)NCCOC (stereo unspecified) | 1.3%
Cc1ccc(NC(=O)c2nc(S(C)(=O)=O)ncc2N(Cc2ccco2)Cc2ccco2)cc1C | -1.7%
COCCc1nn2c(=O)cc(COC(=O)c3ccccc3C)nc2s1 | 1.4%
O=C(Nc1ccncc1)c1cnn2c1NC(=C1CC1)C=C2C(F)F | 0.4%
O=C(/C=C/c1ccccn1)NCC1Cc2cccc(-c3ncccn3)c2O1 (stereo unspecified) | 0.5%
N#Cc1ccc(NC(=O)C2Cc3ccccc3CN2S(=O)(=O)c2ccc(F)cc2)cc1 (stereo unspecified) | 0.9%
CCCc1c(C)c2ccc(O)c(CN3CCN(c4ccc(F)cc4)CC3)c2oc1=O | 1.2%
COc1ccc(OC)c(-c2nnc3n2N=C(c2ccc(OC)c(OC4CCCC4)c2)CS3)c1 | 0.1%
COc1cc(OC)cc(C(=O)Nc2nc(-c3nnn(-c4ccc(F)c(Cl)c4)c3C)ns2)c1 | 5.1%
CCc1ccc(N2CCn3c2nc2c3c(=O)n(Cc3ccc(F)cc3)c(=O)n2C)cc1 | 2.0%

# Not all compounds are listed; count on the stated rates, not on these rows.
